Screening data as filed in PubChem BioAssay.
gsp antagonist = antagonists of gsp mutant (McCune-Albright syndrome); hit rate 0.4% among 340,000; Potency, µM (highest dose often 76.9 µM), for the others: top-dose activity change, negative = inhibition, most hits filed as inhibitors; gsp-mutant cells, cAMP HTRF, 30 min; control for the full effect not named in the record; active = falling curve of any shape with a large fitted effect; inconclusive = falling curve, mostly with a smaller effect; inactive = flat or rising curve; cell line not stated here;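 also: intracellular cAMP measured with PDE inhibitor Ro 20-1724 present during compound exposure; potency is read from the fitted curve at half-maximal effect; % is scaled to controls: 0 for no effect and ±100 for the full control effect; nearly all actives have a fitted effect of over 65% in size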
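HTRF cAMP measurement after 30 min RT detection following 30 min, 37C compound treatment alongside […] (added as 300 uM solution) in G418-selected cells seeded at 2000/well and grown 16–24 h.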
Sfp inh = blocks B. subtilis Sfp PPTase activity | Potency, µM, for the others: max response, negative = inhibition, hits mostly inhibitors | hit rate 3.5% among 310,000 | AID 1490 | Biochemical Sfp PPTase activity, qHTS; active = well fitted inhibition curve with a large enough effect; inconclusive = small, poorly fitted or top-dose-only effect, or another doubt; inactive = no such curve, though single readings can be large or run the other way;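 also: the enzyme is Sfp with the accession as filed and its product quenches rhodamine fluorescence; potency is read from the fitted curve at half-maximal effect; 0% = enzyme reaction without inhibitor and -100% = no enzyme wells; top concentration of the series not given in the record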
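Fluorescence-quenching assay with 15 nM Sfp, 5 uM rhodamine-CoA and 12.5 uM BHQ-2-labelled ybbR peptide in pH 7.6 Hepes/MgCl2 buffer. Enzyme was pre-incubated with compound for 15 min at room temperature. Rate was taken from the 30-min fluorescence change (525/598 nm).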
Menin-MLL FL inh = inhibitors of human menin-MLL interaction, wild-type MLL peptide | Fluorescence polarization, fluorescein-MLL peptide displacement from menin | FP activity change, % at 61.4 µM | 290,000 tested, under 10 active | AID 1766; inconclusive = falling polarisation curve, or a change in total fluorescence; inactive = total fluorescence flat and polarisation flat or rising; no compound was filed as active; the % refers to the polarisation; negative = inhibition;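 also: % of control where 0% means no effect; inhibitors lower the polarisation; unlabelled MLL peptide was the positive control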
TRPV1 potentiator = human TRPV1 potentiation | hit rate 0.02% among 320,000 | Q8NER1 | TRPV1-expressing cells, Fluo-8 calcium influx, capsaicin EC20 potentiation; host cell line not named in the record; control for the full effect not named in the record | potentiation, % at 8.33 µM; active means potentiation above 80%; inconclusive means 30% to 80%; inactive means below 30%; also: 0% is about no effect
Target sequence (Q8NER1 whole entry, looked up): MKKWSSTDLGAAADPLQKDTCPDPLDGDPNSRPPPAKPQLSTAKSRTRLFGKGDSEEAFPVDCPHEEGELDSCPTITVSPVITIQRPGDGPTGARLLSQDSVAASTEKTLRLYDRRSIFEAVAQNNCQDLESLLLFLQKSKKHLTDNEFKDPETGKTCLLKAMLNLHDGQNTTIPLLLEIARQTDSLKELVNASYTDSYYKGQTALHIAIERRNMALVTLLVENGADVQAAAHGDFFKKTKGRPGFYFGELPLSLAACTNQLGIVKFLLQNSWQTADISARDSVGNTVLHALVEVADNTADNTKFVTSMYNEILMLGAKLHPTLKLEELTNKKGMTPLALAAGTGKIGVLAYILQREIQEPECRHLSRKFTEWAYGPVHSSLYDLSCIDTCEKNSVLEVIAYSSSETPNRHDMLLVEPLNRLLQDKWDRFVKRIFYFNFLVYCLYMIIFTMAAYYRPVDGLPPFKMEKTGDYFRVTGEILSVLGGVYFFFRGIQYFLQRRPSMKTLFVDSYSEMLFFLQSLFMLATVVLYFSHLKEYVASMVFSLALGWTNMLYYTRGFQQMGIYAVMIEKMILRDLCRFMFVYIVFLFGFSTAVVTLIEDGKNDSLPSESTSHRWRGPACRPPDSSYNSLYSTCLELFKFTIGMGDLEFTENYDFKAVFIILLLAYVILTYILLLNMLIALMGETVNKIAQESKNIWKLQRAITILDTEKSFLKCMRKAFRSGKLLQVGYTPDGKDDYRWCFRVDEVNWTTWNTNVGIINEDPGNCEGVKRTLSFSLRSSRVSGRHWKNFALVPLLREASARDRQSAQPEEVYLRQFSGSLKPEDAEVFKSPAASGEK
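TRPV1-expressing cells were cultured overnight at 35.5C and loaded with Fluo-8 calcium dye for 40 to 90 min at room temperature. After a 10 s baseline, compound was added and calcium influx was read kinetically for 3 min (ex 480/em 520 nm).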
gsp agonist = gsp mutant agonism; gsp mutant cells, cAMP HTRF, 30 min; control for the full effect not named in the record; Potency, µM (doses to about 76.9 µM), without a hit: top-dose activation (cAMP increase), usual class: activators; hit rate 0.13% among 340,000; AID 624287; active = well fitted activation curve with a large enough effect; inconclusive = small, poorly fitted or top-dose-only effect, or another doubt; inactive = no such curve, though single readings can be large or run the other way; cell line not stated here;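 also: phosphodiesterase inhibitor Ro 20-1724 added with compounds to block cAMP breakdown; potency is read from the fitted curve at half-maximal effect; nearly all actives have a fitted effect of over 60% in size; about a fifth of the inactives were tested at one dose only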
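Cells in DMEM/10% FBS with G418 were pretreated with compounds in DMSO plus […] (300 uM stock) for 30 min at 37C. cAMP was measured by HTRF (cAMP-d2 plus anti-cAMP antibody-K) after 30 min at room temperature.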
CtBP-E1A blk = blocks the CtBP interaction with E1A. AlphaScreen GST-E1A/His-CtBP binding, 1536-well; active compounds read low; control for the full effect not named in the record. activity change, % (no concentration beside the values). hit rate 0.49% among 340,000. AID 651724; in the data active means activity change below about -65%; inconclusive means about -30% to -65%; inactive means above about -30%; also: % is scaled to controls: 0 for no effect and ±100 for the full control effect
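Homogeneous bead-based format: GST-tagged E1A captured on glutathione donor beads, His-tagged CtBP on nickel acceptor beads; compounds precede bead addition by 2 h at 37 °C.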
ClpP mod = qHTS Assay for Activators of ClpP; hit rate 1.9% among 340,000; purified B. subtilis ClpP, FRET peptide cleavage, 20 min; ATP-dependent Clp protease proteolytic subunit (Bacillus subtilis (strain 168)), P80244; Potency, µM (top dose mostly 57.5 µM), for inactives: top-dose activity change, negative = active; active = well fitted falling curve with a large enough effect; inconclusive = small, poorly fitted or top-dose-only effect; inactive = no such curve, though single readings can be large or run the other way; also: potency is read from the fitted curve at half-maximal effect; the source files actives as falling curves though it sought activators and does not explain the sign; nearly all actives have a fitted effect of over 65% in size; many hits overshoot -100%
Target sequence (P80244 whole entry, looked up): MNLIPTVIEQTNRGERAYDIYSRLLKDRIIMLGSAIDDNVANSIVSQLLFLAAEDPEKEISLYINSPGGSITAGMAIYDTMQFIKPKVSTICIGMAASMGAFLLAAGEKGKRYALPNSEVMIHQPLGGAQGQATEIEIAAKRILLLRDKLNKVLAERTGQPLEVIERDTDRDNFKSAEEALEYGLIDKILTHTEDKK
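Purified B. subtilis ClpP, 10 microg/mL final in Tris/HCl pH8 with KCl, BSA, glycerol and Tween-20, cleaved an Abz/nitrotyrosine-quenched decapeptide. Fluorescence (ex 320, em 430) was read at 0 and 20 min at room temperature. Delta was normalized to 5.8 microM ADEP and DMSO/no-enzyme controls.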
* = called active by the depositor; ? = inconclusive; / = not tested or not shown; [ ] = another dose, or the depositor's remark.

SMILES | gsp antagonist | Sfp inh | Menin-MLL FL inh | TRPV1 potentiator | gsp agonist | CtBP-E1A blk | ClpP mod
CCCC(=O)Nc1sc(-c2ccccc2)c(-c2ccccc2)c1C(=O)O | -28.8% | / | / | / | -1.3%[15.4 µM] | -2.2 | -2.0%
O=C(NCCCn1ccnc1)c1ccccc1Br | 12.2% | 9.7% | 1.3 | 19.7 | ? | 6.7 | -1.3%
CCc1cccc(OCCCN2C(=O)NC(C)(C)C2=O)c1 | -11.6% | 15.9% | -1.1 | 1.2 | -32.8% | 5.8 | 0.9%
CCn1cc(CCC(=O)O)c(C)n1 | -12.0% | -16.6% | 2.7 | 2.9 | 6.5%[15.4 µM] | 1.2 | /
Cc1cc(C(=O)N/N=C/C=C/c2ccccc2)c(C)o1 | -3.3% | -4.1% | -0.5 | 11.5 | -30.9%[inhibitor] | -0.1 | 0.7%
COc1ccc(-c2cc3ccc(OC(C)C(=O)O)cc3oc2=O)cc1 (stereo not given) | -1.0% | 2.9% | -1.7 | 3.2 | ? | 0.5 | 3.5%
O=C(NC(=S)N1CCN(c2ccc([N+](=O)[O-])cc2)CC1)c1ccccc1 | 6.1% | 17.0% | 0.7 | -4.6 | -7.4% | 5.1 | /
COc1cccc(N2CCN(c3nc(C)cc(C)c3C#N)CC2)c1 | -5.9% | -23.4% | 0.8 | 18.1 | 3.9% | -13.2 | -11.9%
Cc1nn(CC(=O)NCc2cccc3ccccc23)c(=O)c2ccccc12 | 12.9% | -12.4% | 11.4 | 2.6 | -23.5% | -4.0 | -3.9%
O=C(Nc1nccs1)c1ccc(F)c(S(=O)(=O)N2CCOCC2)c1 | -11.9% | 3.2% | -0.1 | 2.9 | 8.4%[15.4 µM] | -5.1 | 0.9%
O=C(NC1=NCCS1)c1ccncc1 | 4.0% | 5.1% | -1.7 | -2.5 | 2.6% | -0.5 | -1.6%
CC(C)(C)NC(=O)COC(=O)CNC(=O)c1cc(Cl)cc([N+](=O)[O-])c1 | -1.2% | 19.6% | -1.2 | -9.7 | ? | 7.1 | 1.3%
CCc1ccc(NC(=O)C(=O)N/N=C(\C)CC(=O)NCc2ccc(Cl)cc2)cc1 | 0.6% | 16.7% | -4.5 | 5.6 | -62.9%[inhibitor] | / | 2.6%
CCC[C@@H]1CCCO[C@@](C(=O)NCc2ccc(S(C)(=O)=O)cc2)(C(F)(F)F)C1 | 9.0% | -4.5% | -1.3 | / | -50.5%[inhibitor] | -0.2 | 0.6%
Cc1n(N)c2ccccc2[n+]1CC(=O)c1ccccc1 | 13.6% | 5.8% | 0.0 | -5.9 | 13.0%[15.4 µM] | -0.8 | -0.2%
O=C(CCCN1C(=O)C(c2ccccc2)Oc2cccnc21)Nc1ccccc1Br (stereo not given) | / | / | / | / | ? | 2.4 | -0.8%
O=C(NC1CCCC1)C(c1cccnc1)N(C(=O)c1csnn1)c1ccccc1 (stereo not given) | 5.2% | -4.5% | -4.1 | 11.6 | ? | 4.5 | /
CCCS(=O)(=O)c1cscc1NC(=O)c1c(-c2c(F)cccc2Cl)noc1C | 6.5% | 0.3% | 0.0 | -5.0 | -0.4%[15.4 µM] | 0.0 | -2.0%
COc1ccc(CCNC(=O)CNCC2CCCCC2)cc1OC | 7.4% | -24.2% | -6.9 | -7.5 | 12.5% | / | -1.5%
O=C(Nc1cc2c3c(c1)CC(=O)N3CCC2)C1CCCCC1 | 14.4% | / | / | 12.7 | 13.3%[15.4 µM] | 1.5 | -6.1%

Exported as a markdown table: part of the list above.
| molecule | gsp antagonist | Sfp inh | Menin-MLL FL inh | TRPV1 potentiator | gsp agonist | CtBP-E1A blk | ClpP mod |
| --- | --- | --- | --- | --- | --- | --- | --- |
| Cc1n(N)c2ccccc2[n+]1CC(=O)c1ccccc1 | 13.6% | 5.8% | 0.0 | -5.9 | 13.0%[15.4 µM] | -0.8 | -0.2% |
| O=C(CCCN1C(=O)C(c2ccccc2)Oc2cccnc21)Nc1ccccc1Br (stereo not given) | / | / | / | / | ? | 2.4 | -0.8% |

3 entries picked at random from those above, as already listed:
SMILES | gsp antagonist | Sfp inh | Menin-MLL FL inh | TRPV1 potentiator | gsp agonist | CtBP-E1A blk | ClpP mod
O=C(NC1CCCC1)C(c1cccnc1)N(C(=O)c1csnn1)c1ccccc1 (stereo not given) | 5.2% | -4.5% | -4.1 | 11.6 | ? | 4.5 | /
CCCS(=O)(=O)c1cscc1NC(=O)c1c(-c2c(F)cccc2Cl)noc1C | 6.5% | 0.3% | 0.0 | -5.0 | -0.4%[15.4 µM] | 0.0 | -2.0%
COc1ccc(CCNC(=O)CNCC2CCCCC2)cc1OC | 7.4% | -24.2% | -6.9 | -7.5 | 12.5% | / | -1.5%

The list goes on:
SMILES | gsp antagonist | Sfp inh | Menin-MLL FL inh | TRPV1 potentiator | gsp agonist | CtBP-E1A blk | ClpP mod
Cc1ccc(S(=O)(=O)N2CCN(C(=O)c3ccco3)CC2)cc1 | -6.8% | 4.6% | -2.0 | -2.2 | 1.8%[15.4 µM] | -16.0 | 0.5%
COc1ccccc1C(=O)Nc1ccc(S(=O)(=O)N2CCN(C)CC2)cc1 | 12.5% | / | / | / | -20.3%[15.4 µM] | -10.7 | 0.0%
CC(C)CCOc1ccc(C2(C)NC(=O)NC2=O)cc1 (stereo not given) | 5.1% | 8.8% | -1.3 | 2.2 | -19.5% | / | 0.7%
O=c1c2cccc3c2c(nn1CN1CCOCC1)-c1ccccc1-3 | 2.4% | 1.6% | -1.3 | ? | 5.9% | ? | -11.9%
COC(=O)CCC(=O)N1CN2CN(C(=O)CCC(=O)OC)CC([N+](=O)[O-])(C2)C1 | -0.7% | -2.3% | 2.5 | -1.9 | -60.1%[inhibitor] | 0.7 | 0.3%
COc1ccc(N(C(=O)CNC(=O)c2cccs2)C(C(=O)NCC2CCCO2)c2ccccc2)cc1 (stereo not given) | -6.9% | 7.5% | -1.2 | 4.0 | -4.8%[15.4 µM] | -2.0 | /
Cc1cc(C)c(C(=O)/C=C/c2ccc3c(c2)OCO3)c(=O)[nH]1 | 2.7% | -3.5% | 10.0 | 1.8 | 11.1%[15.4 µM] | 0.0 | /
O=C(NNC(=O)c1cc(S(=O)(=O)N2CCOCC2)c(Cl)cc1Cl)c1ccccc1F | -17.5% | / | / | / | -24.1% | -87.0* | /
O=C(OCc1nnc(-c2ccccc2)o1)c1ccc(S(=O)(=O)NCc2ccco2)cc1 | -12.3% | -20.0% | 4.9 | 12.0 | -43.9%[inhibitor] | -15.5 | -3.5%
COc1ccc(NC(=O)CN(C)C(=O)c2cc(-c3ccccc3)nc3ccccc23)cc1 | -25.5% | / | / | -3.6 | 14.2%[15.4 µM] | -28.1 | -7.9%
Cn1ncc([N+](=O)[O-])c1C(=O)Nc1ccc(-c2ccccc2)cc1 | 1.5% | -1.9% | -3.2 | -5.3 | -45.4%[inhibitor] | 3.3 | /
O=C(CCCc1ccccc1)Nc1ccc2c(c1)OCCO2 | -8.5% | 9.0% | -0.6 | -0.3 | 18.4%[15.4 µM] | -2.6 | /
Cc1ccc(NC(=O)c2ccccc2-c2ccccc2C(=O)O)cc1 | 7.8% | 25.1% | 6.5 | -2.7 | 12.0% | 0.8 | -0.5%
CC1(C)C(=O)C2(CCCCC2)C(=O)OC1C(=O)c1ccccc1 (stereo not given) | 0.5% | -2.9% | -0.9 | -16.8 | 2.8% | 3.6 | -2.4%
CN(C)CCCN(C(=O)c1ccco1)c1nc(-c2ccc(Cl)cc2)cs1 | -0.7% | 4.1% | 1.2 | -11.1 | 10.0% | / | 0.2%
COCCn1c(SCC(=O)Nc2sc(C)c(C)c2C#N)nnc1C(C)C | -0.4% | 11.5% | 1.2 | 6.6 | -33.1%[inhibitor] | -6.3 | -1.7%
CC1(C)SC(=S)N(/N=C/c2cccnc2)C1N(O)C(=O)Nc1ccccc1 (stereo not given) | -2.7% | -28.4% | 4.2 | -10.2 | 2.5% | / | -5.8%
N#CCSc1nc2c(cc1C#N)CCCCCC2 | 8.7% | -10.4% | 0.6 | ? | 2.1% | 7.7 | 8.3%
Cc1ccc(OCc2csc(N)n2)cc1 | -6.8% | 3.1% | -1.2 | -1.1 | 3.0%[15.4 µM] | 5.9 | -3.0%
C/C(=C\C(=O)c1cccnc1)Nc1ccc(C)c(C)c1 | ? | -8.8% | 3.2 | -19.2 | -1.4% | 0.1 | -1.7%
Cc1cc(C)n2c(Nc3ccc4c(c3)OCCO4)c(-c3ccco3)nc2n1 | / | -17.3% | -0.8 | -15.7 | / | / | /
CCOc1cc(-n2cnnn2)c(OCC)cc1NC(=O)c1cnccn1 | -14.1% | 17.3% | -1.4 | 20.8 | -3.6% | 4.9 | -1.6%
CCN(C[C@H]1N[C@@](C)(C(=O)OC)[C@H]2C(=O)N(Cc3ccccc3)C(=O)[C@@H]12)C(=O)Nc1ccc(F)cc1 | -2.5% | / | / | / | / | 6.7 | -2.0%
COc1ccccc1-n1cnc2cc(NCc3ccccn3)ccc21 | -17.2% | -7.2% | -0.7 | ? | -44.2%[inhibitor] | -27.6 | -6.0%
Cc1ccccc1Cn1c(=O)n(CCCC(=O)NCc2ccco2)c(=O)c2sccc21 | -10.6% | 2.5% | 0.3 | 2.2 | ? | -16.9 | -2.3%
Cc1ccc([N+](=O)[O-])cc1NC(=O)CN(C(=O)c1ccccc1Cl)C1CCCCC1 | ? | 3.5% | 6.6 | 3.6 | 4.4% | 4.7 | -2.0%
COc1c(C)cc(C(=O)C2CCCN(C(=O)c3cc4nc(C)cc(C)n4n3)C2)cc1C (stereo not given) | ? | 8.2% | -0.5 | -11.0 | 17.6% | -2.5 | -4.3%
COc1ccc(OC)c(Nc2cc(C)nc3ccc(C)cc23)c1 | 5.2% | / | / | / | 1.3%[15.4 µM] | -14.1 | /
O=C1CCc2cc(S(=O)(=O)N3CCN(c4ccccc4)CC3)cc3c2N1CCC3 | 10.6% | / | / | 8.7 | -6.9% | 3.7 | 4.6%

An excerpt from above, showing only Menin-MLL FL inh:
mol | Menin-MLL FL inh
Cc1cc(C)n2c(Nc3ccc4c(c3)OCCO4)c(-c3ccco3)nc2n1 | -0.8
CCOc1cc(-n2cnnn2)c(OCC)cc1NC(=O)c1cnccn1 | -1.4
